# Env fusion inh – blocks HIV Env-driven cell-cell fusion. HeLa-JRFL Env/CEM21 cell fusion, luciferase. inhibition, % at 12.3 µM. 360,000 tested, 1.1% active;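 active = mean replicate inhibition score of at least 50 and every replicate individually at or above 50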;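 note: 0% = plate neutral controls and 100% = maraviroc near 300 nM; one replicate is shown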
# Yeast UUG start – alters start codon recognition fidelity in yeast | S. cerevisiae UUG-firefly luciferase reporter, luminescence/redox ratio | activity score, % at 18.7 µM | 350,000 tested, 0.13% active;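 active = replicate mean at a twofold rise or more, about +100% in these data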;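 note: firefly luciferase made from a UUG start codon reports start codon fidelity; reporter light over untreated wells divided by growth signal over untreated wells; some hits fall short of that in this replicate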
# Starred values were filed as active, the others as inactive; & = joins results of further samples; [ ] = remark or other dose. This is a subset; rates above refer to the full screens.
SMILES,Env fusion inh,Yeast UUG start
COCCNC(=O)C[C@H]1CC[C@H]2[C@H](COc3ccc(NC(=O)Nc4ccccc4)cc3C(=O)N2C)O1,-2[16.7 µM],-10
COc1ccc(S(=O)(=O)Nc2cccc3c2O[C@H](CN(C)C(=O)Nc2ccc4c(c2)OCO4)[C@@H](C)CN([C@@H](C)CO)C3=O)cc1,13[16.7 µM],4
Cc1noc(C)c1NC(=O)Nc1ccc2c(c1)C(=O)N([C@H](C)CO)C[C@H](C)[C@H](CN(C)Cc1ccc(C(F)(F)F)cc1)OCCCC[C@@H](C)O2,-1[16.7 µM],2
CC(=O)N(C)C[C@H]1Oc2cc(-c3ccccc3F)ccc2S(=O)(=O)N([C@@H](C)CO)C[C@@H]1C,2[16.7 µM],-2
CCCNC(=O)Nc1ccc2c(c1)OC[C@H](C)NC[C@H](C)[C@@H](OC)CN(C)C2=O,-6[16.7 µM],-5
COC(=O)C[C@@H]1C[C@H]2c3cc(NC(=O)Nc4ccc(C(F)(F)F)cc4)ccc3O[C@H]2[C@H](CO)O1,8[16.7 µM],6
CCCNC(=O)C[C@H]1CC[C@@H]2[C@@H](COc3ccc(NC(=O)c4cc(C)on4)cc3C(=O)N2C)O1,0[16.7 µM],-4
COc1cccc(S(=O)(=O)N[C@@H]2C=C[C@H](CC(=O)NCc3ccc(F)cc3)O[C@H]2CO)c1,-15[16.7 µM],-7
COc1cccc(S(=O)(=O)N[C@H]2CC[C@@H](CCn3cc(-c4ccccc4OC)nn3)O[C@H]2CO)c1,-2[16.7 µM],3
C[C@H](CO)N1C[C@H](C)[C@@H](CN(C)Cc2ccc(C(F)(F)F)cc2)Oc2ccc(NS(=O)(=O)c3ccc(F)cc3)cc2CC1=O,42[16.7 µM],16
CNC[C@H]1Oc2ccc(NC(=O)CCCN(C)C)cc2C(=O)N([C@@H](C)CO)C[C@@H]1C,-4[16.7 µM],9
COc1ccc(S(=O)(=O)Nc2ccc3c(c2)C(=O)N([C@@H](C)CO)C[C@H](C)[C@@H](CN(C)C(=O)Nc2ccc(C(F)(F)F)cc2)OCCCC[C@H](C)O3)cc1,24[16.7 µM],-20
O=C(N[C@H]1CC[C@H](CCNS(=O)(=O)c2ccccc2Cl)O[C@@H]1CO)c1ccccc1,16[16.7 µM],-4
C[C@@H]1CN([C@@H](C)CO)C(=O)c2cc(C#CC3CC3)cnc2O[C@H]1CN(C)Cc1ccccc1C(=O)O,-14[16.7 µM],21
OC(CSc1nc(-c2ccccc2)c(-c2ccccc2)o1)CC(O)c1ccccc1 (configuration not stated),15[16.7 µM],-8
C[C@@H]1CN([C@@H](C)CO)C(=O)Cc2cc(N(C)C)ccc2O[C@@H]1CN(C)Cc1ccc(C(=O)Nc2ccccc2N)cc1,-267[16.7 µM],5
C[C@@H]1CCCCO[C@@H](CN(C)S(=O)(=O)c2cccs2)[C@@H](C)CN([C@@H](C)CO)C(=O)c2cc(NC(=O)c3ccncc3)ccc2O1,-23[16.7 µM],8
CC(=O)N[C@@H]1CC[C@H](CCNC(=O)C2CCCC2)O[C@H]1CO,20[16.7 µM],-7
CCNC(=O)Nc1ccc2c(c1)C(=O)N(C)[C@H]1CC[C@@H](CC(=O)NCC3CC3)O[C@@H]1CO2,16[16.7 µM],9
COc1ccccc1S(=O)(=O)N[C@@H]1C=C[C@H](CC(=O)NCc2cccc(F)c2)O[C@@H]1CO,-5[16.7 µM],-15
Cc1ccc(S(=O)(=O)N(C)C[C@H]2OCCCC[C@@H](C)Oc3ccc(NC(=O)Cc4ccccc4)cc3C(=O)N([C@@H](C)CO)C[C@@H]2C)cc1,-81[16.7 µM],-4
Cc1noc(C)c1NC(=O)Nc1ccc2c(c1)C(=O)N([C@@H](C)CO)C[C@H](C)[C@H](CN(C)S(=O)(=O)c1ccccc1)OCCCC[C@@H](C)O2,-9[16.7 µM],5
CCNC(=O)C[C@@H]1CC[C@@H](NS(=O)(=O)c2ccc(C)cc2)[C@@H](CO)O1,11[16.7 µM],8
CC(=O)N(C)C[C@H]1Oc2cc(C#C[C@@H](C)O)ccc2S(=O)(=O)N([C@H](C)CO)C[C@@H]1C,-5[16.7 µM],0
CCCN(C)C[C@H]1OCCCC[C@@H](C)Oc2ccc(NC(=O)Nc3ccc(F)cc3)cc2C(=O)N([C@H](C)CO)C[C@@H]1C,-1[16.7 µM],-10

# (continued)
SMILES,Env fusion inh,Yeast UUG start
C[C@H](CO)N1C[C@H](C)[C@H](CN(C)C(=O)C2CC2)Oc2ncc(-c3cccnc3)cc2C1=O,-6[16.7 µM],-4
C[C@@H]1CCCCO[C@@H](CN(C)Cc2ccc(Cl)c(Cl)c2)[C@@H](C)CN([C@H](C)CO)C(=O)c2cc(NC(=O)Nc3cccc4ccccc34)ccc2O1,-4[16.7 µM],-16
COc1cccc(S(=O)(=O)Nc2ccc3c(c2)C(=O)N(C)C[C@@H](OC)[C@H](C)CN[C@H](C)CO3)c1,-22[16.7 µM],-8
COc1ccc(C#Cc2ccc3c(c2)O[C@@H](CN(C)C)[C@H](C)CN([C@H](C)CO)S3(=O)=O)cc1,24[16.7 µM],2
C[C@@H]1CN([C@@H](C)CO)S(=O)(=O)c2ccc(C#CC(C)(C)O)cc2O[C@@H]1CN(C)Cc1ccc(-c2ccccc2)cc1,36[16.7 µM],-7
CC(C)NC(=O)Nc1ccc2c(c1)C(=O)N([C@@H](C)CO)C[C@@H](C)[C@@H](CN(C)Cc1ccc(Cl)c(Cl)c1)OCCCC[C@@H](C)O2,25[16.7 µM],1
C[C@H]1CN([C@@H](C)CO)S(=O)(=O)c2ccc(C#Cc3ccccc3)cc2O[C@H]1CN(C)S(=O)(=O)c1ccccc1F,20[16.7 µM],-16
C[C@H]1CN([C@@H](C)CO)S(=O)(=O)c2ccc(-c3cncnc3)cc2O[C@H]1CN(C)C(=O)CN(C)C,-10[16.7 µM],9
Cc1noc(C)c1NC(=O)N(C)C[C@@H]1Oc2c(NS(=O)(=O)c3ccc(F)cc3)cccc2C(=O)N([C@H](C)CO)C[C@H]1C,22[16.7 µM],-8
CO[C@@H]1CN(C)C(=O)c2cc(NS(=O)(=O)CC(F)(F)F)ccc2OC[C@@H](C)N(CCC(F)(F)F)C[C@H]1C,-38[16.7 µM],10
C[C@H](CO)N1C[C@H](C)[C@@H](CN(C)CC2CC2)Oc2c(NC(=O)Nc3cccc4ccccc34)cccc2C1=O,12[16.7 µM],-8
O=C(Cc1ccccc1)N[C@@H]1C=C[C@@H](CC(=O)N2CCOCC2)O[C@@H]1CO,-9[16.7 µM],-12
C[C@@H]1CN([C@@H](C)CO)C(=O)Cc2cc(NC(=O)NC3CCCCC3)ccc2O[C@H]1CN(C)Cc1ccc(-c2ccccc2)cc1,38[16.7 µM],8
CCCNC(=O)N1[C@H](CO)[C@@H](c2ccc(-c3cccnc3)cc2)[C@@H]1C#N,18[16.7 µM],20
O=C(C[C@H]1CC[C@@H]2[C@H](COC[C@@H](O)CN2Cc2cc(F)cc(F)c2)O1)NC1CCCC1,-3[16.7 µM],7
O=C(N[C@@H]1CC[C@@H](CCn2cc(C3CC3)nn2)O[C@H]1CO)c1cccnc1,-10[16.7 µM],-3
Cc1noc(C)c1S(=O)(=O)Nc1ccc2c(c1)CC(=O)N([C@H](C)CO)C[C@H](C)[C@H](CN(C)S(=O)(=O)c1cccs1)O2,45[16.7 µM],21
O=C(Nc1ccc(F)cc1)N[C@H]1CC[C@@H](CCn2cc(C3(O)CCCC3)nn2)O[C@H]1CO,0[16.7 µM],1
O=C(C[C@@H]1CC[C@H](NC(=O)CC2CC2)[C@@H](CO)O1)NCC(F)(F)F,13[16.7 µM],-8
O=C(Cc1ccncc1)NCC[C@@H]1CC[C@@H](NC(=O)Nc2ccc(F)cc2)[C@@H](CO)O1,-6[16.7 µM],-2
C[C@H]1CN([C@@H](C)CO)C(=O)c2cccc(NS(=O)(=O)c3ccc(Cl)cc3)c2O[C@H]1CN(C)CC1CC1,-13[16.7 µM],3
CO[C@@H]1CN(C)C(=O)c2cc(NC(=O)C3CCC3)ccc2OC[C@@H](C)N(Cc2ccncc2)C[C@@H]1C,-3[16.7 µM],3
COc1ccc(NC(=O)Nc2ccc3c(c2)C(=O)N([C@H](C)CO)C[C@H](C)[C@H](CN(C)S(=O)(=O)c2ccc(OC)cc2)OCCCC[C@@H](C)O3)cc1,-15[16.7 µM],-15
CN(C)C(=O)C[C@H]1CC[C@H]2[C@H](COc3ccc(NS(=O)(=O)c4cccc(F)c4)cc3C(=O)N2C)O1,17[16.7 µM],-1
COc1ccc(S(=O)(=O)N[C@H]2C=C[C@H](CC(=O)NCCc3ccccc3)O[C@H]2CO)cc1,14[16.7 µM],-16

# Next part
SMILES,Env fusion inh,Yeast UUG start
C[C@@H]1CN([C@@H](C)CO)S(=O)(=O)c2ccc(C#Cc3ccncc3)cc2O[C@@H]1CN(C)C(=O)C1CCOCC1,0[16.7 µM],3
Cc1noc(C)c1NC(=O)Nc1ccc2c(c1)C(=O)N([C@H](C)CO)C[C@H](C)[C@H](CN(C)C)OCCCC[C@@H](C)O2,0[16.7 µM],-12
O=C(C[C@@H]1C[C@H]2c3cc(NC(=O)C4CCC4)ccc3O[C@H]2[C@H](CO)O1)NCCN1CCCCC1,-15[16.7 µM],-4
CC(C)C(=O)Nc1ccc2c(c1)C(=O)N(C)[C@@H]1CC[C@@H](CC(=O)N[C@H](C)c3ccccc3)O[C@@H]1CO2,-23[16.7 µM],11
COc1ccc(NC(=O)N(C)C[C@H]2OCCCC[C@@H](C)Oc3ccc(NS(=O)(=O)c4ccccc4)cc3C(=O)N([C@@H](C)CO)C[C@@H]2C)cc1,-17[16.7 µM],9
Cc1ccc(-c2ccc3c(c2)O[C@H](CN(C)Cc2ccc(C(=O)O)cc2)[C@H](C)CN([C@@H](C)CO)S3(=O)=O)cc1,-18[16.7 µM],16
C[C@@H]1CCCCO[C@H](CN(C)C(=O)Nc2ccccc2)[C@@H](C)CN([C@H](C)CO)C(=O)c2cc(NC(=O)NC3CCCCC3)ccc2O1,-18[16.7 µM],-7
O=C(Nc1ccc(F)cc1)Nc1ccc2c(c1)[C@H]1C[C@H](CC(=O)N3CCOCC3)O[C@@H](CO)[C@H]1O2,-15[16.7 µM],6
C[C@H](CO)N1C[C@H](C)[C@H](CN(C)C)Oc2ncc(-c3ccccc3)cc2C1=O,-18&6[16.7 µM],3&-13
CC(C)NC(=O)N(C)C[C@H]1Oc2ncc(-c3ccccc3F)cc2C(=O)N([C@@H](C)CO)C[C@H]1C,-13[16.7 µM],1
COc1ccc(NC(=O)Nc2ccc3c(c2)C(=O)N([C@H](C)CO)C[C@H](C)[C@H](CN(C)S(=O)(=O)c2ccc(OC)cc2)O3)cc1,59*[16.7 µM],-2
CC(C)NC(=O)N(C)C[C@@H]1Oc2ccc(NC(=O)CCCCCC(=O)Nc3ccccc3N)cc2CC(=O)N([C@H](C)CO)C[C@H]1C,-3[16.7 µM],0
COc1ccc(NC(=O)Nc2ccc3c(c2)CC(=O)N([C@@H](C)CO)C[C@H](C)[C@H](CN(C)Cc2ccc(Cl)c(Cl)c2)O3)cc1,7[16.7 µM],-4
CCNC(=O)C[C@H]1CC[C@@H]2[C@@H](COc3ccc(NC(=O)Nc4cccc(Cl)c4)cc3C(=O)N2C)O1,40[16.7 µM],11
CN1CCN(C(=O)C[C@@H]2C[C@@H]3c4cc(NC(=O)NC5CCCCC5)ccc4O[C@@H]3[C@H](CO)O2)CC1,-20[16.7 µM],-2
C[C@@H]1CN([C@H](C)CO)C(=O)c2cc(C3=CCCCC3)cnc2O[C@@H]1CN(C)Cc1ccccc1F,-23[16.7 µM],-14
COCC(=O)N(C)C[C@H]1Oc2cc(C#CC3CC3)ccc2S(=O)(=O)N([C@@H](C)CO)C[C@H]1C,-8[16.7 µM],25
Cc1ccc(S(=O)(=O)Nc2ccc3c(c2)CC(=O)N([C@H](C)CO)C[C@@H](C)[C@H](CN(C)S(C)(=O)=O)O3)cc1,-2[16.7 µM],4
COc1ccc(CN(C)C[C@H]2Oc3c(NC(=O)Nc4ccc(OC)cc4)cccc3C(=O)N([C@@H](C)CO)C[C@H]2C)cc1,-73[16.7 µM],17
COc1ccc(S(=O)(=O)Nc2ccc3c(c2)C(=O)N([C@H](C)CO)C[C@H](C)[C@@H](CN(C)C(=O)NC(C)C)OCCCC[C@@H](C)O3)cc1,-14[16.7 µM],-17

# 2 entries from above in another layout:
canonical_smiles	Env fusion inh	Yeast UUG start
COc1ccc(NC(=O)Nc2ccc3c(c2)CC(=O)N([C@@H](C)CO)C[C@H](C)[C@H](CN(C)Cc2ccc(Cl)c(Cl)c2)O3)cc1	7[16.7 µM]	-4
CCNC(=O)C[C@H]1CC[C@@H]2[C@@H](COc3ccc(NC(=O)Nc4cccc(Cl)c4)cc3C(=O)N2C)O1	40[16.7 µM]	11

# 5 of these compounds in a different format:
# The line under a structure holds: Env fusion inh | Yeast UUG start
COc1ccc(NC(=O)N(C)C[C@H]2OCCCC[C@@H](C)Oc3ccc(NS(=O)(=O)c4ccccc4)cc3C(=O)N([C@@H](C)CO)C[C@@H]2C)cc1
 : -17[16.7 µM] | 9
Cc1ccc(-c2ccc3c(c2)O[C@H](CN(C)Cc2ccc(C(=O)O)cc2)[C@H](C)CN([C@@H](C)CO)S3(=O)=O)cc1
 : -18[16.7 µM] | 16
C[C@@H]1CCCCO[C@H](CN(C)C(=O)Nc2ccccc2)[C@@H](C)CN([C@H](C)CO)C(=O)c2cc(NC(=O)NC3CCCCC3)ccc2O1
 : -18[16.7 µM] | -7
O=C(Nc1ccc(F)cc1)Nc1ccc2c(c1)[C@H]1C[C@H](CC(=O)N3CCOCC3)O[C@@H](CO)[C@H]1O2
 : -15[16.7 µM] | 6
C[C@H](CO)N1C[C@H](C)[C@H](CN(C)C)Oc2ncc(-c3ccccc3)cc2C1=O
 : -18&6[16.7 µM] | 3&-13

# Screens as filed in PubChem.
